# Screens: PubChem, several laboratories
# RecA splice inh: blocks M. tuberculosis RecA intein splicing. AID 2221. inhibition, %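 (about 9 µM by stock and volumes)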. P9WHJ3. cell-free RecA intein splicing, fluorescence. 290,000 compounds, 0.75% hits; in the data active = inhibition above about 30%; inconclusive = no clear call, values can overlap the other calls;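 also: 0% = vehicle wells and 100% = reference inhibitor control wells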
# Target sequence (P9WHJ3 whole entry, looked up, canonical isoform): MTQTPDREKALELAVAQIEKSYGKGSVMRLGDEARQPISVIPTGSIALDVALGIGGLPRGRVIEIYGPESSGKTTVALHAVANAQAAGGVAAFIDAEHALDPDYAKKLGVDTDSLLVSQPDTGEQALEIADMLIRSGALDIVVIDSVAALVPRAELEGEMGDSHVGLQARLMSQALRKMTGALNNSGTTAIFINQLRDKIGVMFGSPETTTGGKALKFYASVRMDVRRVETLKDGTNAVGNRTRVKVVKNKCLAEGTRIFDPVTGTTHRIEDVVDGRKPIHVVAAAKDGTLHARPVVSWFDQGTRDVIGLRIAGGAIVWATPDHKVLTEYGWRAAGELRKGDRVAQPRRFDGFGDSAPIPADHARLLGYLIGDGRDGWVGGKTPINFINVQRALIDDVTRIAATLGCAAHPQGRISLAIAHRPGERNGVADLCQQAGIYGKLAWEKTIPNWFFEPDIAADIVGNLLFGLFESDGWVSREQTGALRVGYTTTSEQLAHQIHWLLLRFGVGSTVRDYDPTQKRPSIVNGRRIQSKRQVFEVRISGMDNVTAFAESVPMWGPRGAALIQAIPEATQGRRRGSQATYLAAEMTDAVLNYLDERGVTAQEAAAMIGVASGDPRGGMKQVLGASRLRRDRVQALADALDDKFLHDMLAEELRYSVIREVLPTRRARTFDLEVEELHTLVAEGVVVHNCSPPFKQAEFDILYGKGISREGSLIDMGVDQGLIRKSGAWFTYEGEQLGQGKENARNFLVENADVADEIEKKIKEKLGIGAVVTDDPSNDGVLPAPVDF
# YopH PTP inh: blocks Yersinia enterocolitica YopH tyrosine phosphatase | fluorescence Ex485/Em525 | inhibition, %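 (about 10 µM by stock and volumes)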 | 140,000 compounds, 0.16% hits;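 active = inhibition of 50% or more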;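 also: controls were vehicle for no effect and minimum signal wells for full effect; inactives centre near -20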
# Mtb bLac sens: beta-lactam sensitization of Mtb H37Rv | inhibition, % at 25 µM | M. tuberculosis H37Rv growth with meropenem, percent inhibition; hits of this screen are not shown here | AID 434955 | 330,000 compounds, 0.27% hits;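 active = about 74% or more and at least 40 points above the plate without the antibiotic, then above 30% in a dose series; inconclusive = first-round hits that could not be retested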;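 also: growth measured after seven days incubation then overnight dye step; 0% = bacteria only wells and 100% = bacteria with antibiotic; twin plates without the antibiotic show which effects depend on it; some results filed as inactive read as strong as hits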
# Arbovirus inh: antivirals against arbovirus infection; arbovirus infection cell-based antiviral screen; inhibition, % at 10 µM; 200,000 compounds, 0.37% hits;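 active = inhibition from about 30%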;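 also: bluetongue infection of BSR cells; cell survival read as ATP light after 72 h; 0% = infected wells without compound and 100% = uninfected wells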
# Mtb H37Rv: M. tuberculosis H37Rv growth inhibitors, H37Rv strain (AID 1626); 220,000 compounds, 0.95% hits; M. tuberculosis H37Rv growth inhibition; higher % means a stronger effect; one-dose inhibition, % at 10 µM; IC50 in µM for titrated hits;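 active = confirmed in a dose series; inconclusive = inhibition above 80% but not taken into the dose series; inactive = below 80% or under 30% at every dose of the series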;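 also: bacteria incubated seven days before Alamar blue readout; 0% = bacteria only wells and 100% = bacteria with antibiotic wells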
# Arbovirus inh repeat: further read-out of Arbovirus inh, marked with its call; inhibition, %; measured here: 10K subset replicate screen; many hits read low in the repeat;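 first of two repeat runs on a subset; 0% = infected and 100% = uninfected wells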
# Starred values were filed as active, the others as inactive; ? = inconclusive; . = not tested or not shown.
SMILES,RecA splice inh,YopH PTP inh,Mtb bLac sens,Arbovirus inh,Mtb H37Rv,others
COCCNC(=O)c1onc(CSc2cccc(Cl)c2)c1C(=O)O,0.3,4,-1,11,-7%,
CC(=O)c1cccc(NC(=O)c2ccc3c(=O)n4c(nc3c2)CCCCC4)c1,1.0,.,-5,13,6%,
CC(C)(C)c1ccc(-c2nnc(NC(=O)c3ccccc3)s2)cc1,1.9,-25,89,-6,63%,
Cc1ccccc1C1CC(c2ccccc2OC(F)F)Nc2ncnn21 (stereo unspecified),-3.0,-33,22,-2,2%,
CN(CC(=O)Nc1ncn[nH]1)S(=O)(=O)c1ccc(Cl)cc1,0.0,.,3,.,.,
CC1=C(C(=O)NC(C)CCc2ccccc2)C2(CCC(C)CC2)OC1=O (stereo unspecified),0.7,.,-3,8,-4%,
O=C(CCS(=O)(=O)c1cccc2nsnc12)NCc1ccccc1,0.1,7,10,0,-5%,Arbovirus inh repeat=0
O=C1NC2(NN1c1ccccc1)C1CC3CC(C1)CC2C3 (stereo unspecified),-0.9,6,-5,-6,-7%,
CCC1(C)Cc2c(sc3nnn(CC(=O)Nc4cccc5ccccc45)c(=O)c23)CO1 (stereo unspecified),1.0,-24,43,-6,15%,
O=C(Cn1nnc(-c2ccccc2)n1)NNC(=O)c1ccccc1,-1.7,.,15,5,3%,
COc1ccc(NC(=S)Nc2cc(C(F)(F)F)ccc2F)cc1,-1.1,.,-3,-1,1%,
O=C(Cn1cc2c(n1)CCCC2)NCC1CCCO1 (stereo unspecified),2.3,-31,-5,4,2%,Arbovirus inh repeat=-3
Clc1ccc(NCc2cccnc2)cc1,0.1,.,-7,.,.,
CC(CCc1ccccc1)NS(=O)(=O)c1ccccc1 (stereo unspecified),0.1,-24,-3,0,4%,
O=C(Nc1ccccc1C(=O)N1CCCC1)c1cccc(S(=O)(=O)N2CCCCCC2)c1,0.0,-34,-12,1,4%,
O=C(/C=C/c1ccc(Br)o1)NCCCN1CCOCC1,-0.4,.,0,3,7%,
CC(C)Cn1c(-c2ccccc2)nc(=S)c2c1CCCC2,0.7,-6,3,-2,-2%,
CC(C)N1CC(C(=O)Nc2ccc(Br)c(Cl)c2)CC1=O (stereo unspecified),1.1,-1,5,8,4%,
O=C(Cc1ccccc1)Nc1ccc(SC(F)F)cc1,3.9,-11,2,17,1%,
COc1ccc(CNC(=O)CCc2nc3cc(S(=O)(=O)N(C)C)ccc3n2C)cc1OC,-3.5,.,-5,-4,0%,
CC(C)(C)c1ccc(OC(=O)c2ccc(-n3cncn3)nc2)cc1,.,.,85,22,24%,
Cc1ccc(NC(=O)Nc2cccc([N+](=O)[O-])c2)nc1,0.5,.,6,-12,0%,
O=C(NCc1ccco1)c1cccc(Br)c1,1.3,.,0,.,.,
O=[N+]([O-])c1ccccc1S(=O)(=O)N(CC1CO1)c1ccccc1 (stereo unspecified),5.7,.,58,.,.,
Cc1ccc(Cn2cnc3c(nnn3Cc3ccc(Cl)cc3)c2=O)cc1,-2.0,-27,-9,-1,-13%,
C#CCOCCOCCOCCNc1nc(N2CCN(C(=O)[C@H]([C@@H](C)CC)n3cc(CCC(=O)O)nn3)CC2)nc(N2CCN(C(=O)[C@H](C)n3cc(CCCN=C(N)N)nn3)CC2)n1,-0.6,-27,-3,-6,-15%,
CCS(=O)(=O)N1N=C(c2ccccc2)CC1c1ccc2nccnc2c1 (stereo unspecified),0.8,-33,3,0,-9%,
O=C(Nc1cccc([N+](=O)[O-])c1)C(=O)N1CCCCC1,-1.4,.,-6,5,-7%,
COc1ccc(C(=O)NNC(=S)NC(=O)c2ccc(Br)o2)cc1OC,-1.2,.,89,-25,?,
O=C(CSc1nnc(-c2ccncc2)n1-c1ccc(Cl)cc1)N1CCOCC1,-1.5,0,8,3,-12%,
CCN(CCNC(=O)CN(C)S(=O)(=O)c1cccc2nsnc12)c1ccccc1,-0.5,-11,1,6,-4%,
O=C(CSCc1ccccc1)Nc1ccc(S(=O)(=O)N2CCOCC2)cc1,0.6,-31,-10,10,-12%,
COc1ccc(C(C(=O)NC2CCCCC2)N(C(=O)CCl)c2ccc(C)cc2)cc1 (stereo unspecified),-2.9,-11,7,8,2%,
CCc1ccc(NC(=O)Cn2cc([N+](=O)[O-])nc2C)cc1,-1.0,.,-6,.,.,
Cc1ccc(S(=O)(=O)NNC(=O)c2cnn(-c3ccccc3)c2C(F)(F)F)cc1,0.4,.,1,.,-10%,
COc1cc(-c2nc(-c3ccc4c(c3)-c3ccccc3S4(=O)=O)c(-c3ccccc3)[nH]2)cc(OC)c1O,-3.8,-15,61,-9,13%,
C=CCOc1cccc(C2C(C(=O)c3ccco3)=C(O)C(=O)N2CCN(CC)CC)c1 (stereo unspecified),3.2,-23,-1,4,-9%,
CCN(CC)S(=O)(=O)c1cccc(C(=O)N[C@H](C(=O)Nc2nc3ccccc3s2)C(C)C)c1,1.0,-6,-1,-2,2%,
O=C(NNC1=NCCC1)c1ccc(Br)cc1,-0.1,-5,98,10,0%,
CCOCc1cc(CN2CCCC(CNC(=O)c3ccco3)C2)ccc1OC (stereo unspecified),1.4,.,-9,.,.,
Cc1c(NC(=O)c2ccc(Br)o2)c(=O)n(-c2ccccc2)n1C,1.7,18,-9,18,-3%,Arbovirus inh repeat=0
O=C(NCc1cn(-c2ccccc2)nc1-c1ccc(F)cc1)c1cccc([N+](=O)[O-])c1,3.2,-14,-3,-2,6%,
C/C(CC(C)C)=N\NC(=O)Nc1ccccc1,-10.0,-14,?,-11,3%,
CCOc1ccc(NC(=O)CSc2nc3ccccc3nc2N2CC(C)OC(C)C2)cc1 (stereo unspecified),-0.8,.,11,.,.,
O=C(Cc1cccs1)Nc1cccc(-c2nc3ccccc3o2)c1,-7.0,-24,6,-6,1%,
COc1ccc(OC)c(N2C(=O)/C(=C/c3ccco3)C(=O)NC2=S)c1,16,.,-1,.,.,
CCCCOc1ccc(CSC(=N)N)cc1Cl,13,.,-7,.,3%,
COc1ccc2cc(C(c3nnnn3CCc3ccccc3)N3CCCC(C)C3)c(=O)[nH]c2c1 (stereo unspecified),-1.7,-40,-11,-17,-4%,
COCCN(C(=O)COC(=O)c1c(-c2ccccc2)noc1C)c1c(N)n(Cc2ccccc2)c(=O)[nH]c1=O,-1.0,.,-7,.,.,
Cc1ccc2nc(-c3ccc(N4C(=NC(=O)CCC(=O)O)SC5CS(=O)(=O)CC54)cc3)sc2c1 (stereo unspecified),-1.6,-24,0,1,-1%,
CC1(C)CC(=O)C2=C(C1)OC(N)=C(C#N)[C@@H]2c1ccccc1[N+](=O)[O-],.,.,-7,.,-9%,
Cc1onc(-c2ccccc2Cl)c1C(=O)NC(=S)Nc1ccccc1F,6.0,.,3,12,12%,
O=C1c2ccccc2C(=O)N1OCc1ccccc1[N+](=O)[O-],-3.2,.,-1,2,-1%,
CCN1CCS/C1=C/C=C/C1=[N+](CC)CCS1,-11,-6,-5,13,6%,
Cc1cc(=O)[nH]c2c1c(C)nn2C(C)(C)C,-1.4,.,-8,.,0%,
COc1ccc(NC(=O)c2nn(C)c(C(=O)Nc3ccc(OC)cc3)c2[N+](=O)[O-])cc1,-3.5,.,-1,.,.,
COc1ccc(CNC(=O)c2cnc3cc(C)ccn3c2=O)cc1,-2.9,-45,-1,8,-2%,
O=C1c2ccccc2NC(c2cccnc2)N1c1ccccc1F (stereo unspecified),-3.4,-23,2,3,1%,
CCOc1ccc(C(c2c(NC(=O)c3ccccc3)sc(C)c2C)N2CCN(C)CC2)cc1 (stereo unspecified),18,-13,9,-28,17%,
Cc1cc(O)c(NC(=S)NC(=O)c2ccc(-c3ccc(Cl)cc3)o2)cc1C,-3.8,-38,-5,-44,?,

# (listing goes on)
SMILES,RecA splice inh,YopH PTP inh,Mtb bLac sens,Arbovirus inh,Mtb H37Rv,others
Cc1cccc(C)c1NC(=S)N1CCC(N(C)CC2CCCO2)CC1 (stereo unspecified),0.6,-3,-5,-2,-5%,
CCCN1C(=O)c2ccccc2NC1c1ccc(Cl)cc1 (stereo unspecified),2.1,.,6,.,.,
COC(=O)c1cccc(S(=O)(=O)N2CCCCC2)c1,2.7,-59,-10,1,-1%,
O=C(CCCn1c(=S)[nH]c2cc3c(cc2c1=O)OCO3)N1CCN(c2ccccn2)CC1,.,-22,.,2,0%,
Cc1ccc(OP(=O)(Nc2cccc(C)c2)Oc2ccc(C)cc2)cc1,1.1,.,4,.,.,
COc1ccc(S(=O)(=O)N2CCCCC2)cc1NC(=O)c1cc([N+](=O)[O-])ccc1N1CCOCC1,-2.7,.,-11,.,.,
COc1cccc(OC)c1C(=O)Nc1nnc(C(C)C)s1,.,-16,3,6,-5%,Arbovirus inh repeat=2
Cc1ccc(-c2nnn(CC(=O)N(CCN3CCOCC3)C(C(=O)NC(C)(C)C)c3ccc(C)o3)n2)cc1 (stereo unspecified),0.9,.,-5,.,1%,
COC(=NC1CCCC1)C(O)c1c[nH]c2ccccc12 (stereo unspecified),2.4,-20,-5,8,3%,Arbovirus inh repeat=3
COc1ccccc1NC(=O)NC1(C(=O)N2CCC(O)CC2)CCCCC1,-0.3,12,-3,6,4%,
COc1cc(/C=C(/Sc2nnc(-c3ccc(F)cc3)o2)C(=O)O)ccc1OC(F)F,0.9,.,2,8,-11%,
Cc1ccc(S(=O)(=O)N(C)C)cc1NC(=O)COC(=O)CCCOc1ccccc1,3.3,.,-7,.,.,
Cc1ccccc1NC(=O)c1cccc2nccnc12,-4.1,-33,?,0,-5%,
CC(C)CCNC(=O)C(Cc1ccccc1)NS(=O)(=O)c1ccc2c(c1)c(=O)n(C)c(=O)n2C (stereo unspecified),0.9,6,-7,-13,-2%,
Cc1ccc(CN2CC(C(=O)Nc3ncccc3C)CC2=O)cc1 (stereo unspecified),-3.3,.,-15,.,.,
CCc1ccc(C(=O)Nc2ccc(OC)c(S(=O)(=O)N3CCOCC3)c2)cc1,1.5,.,2,-4,-1%,
Cc1ccc(S(=O)(=O)NCC(=O)N(CC(=O)NCC2CCCO2)Cc2ccccc2)cc1 (stereo unspecified),0.7,-27,-1,14,2%,
O=C1SCC(c2ccc(Cl)cc2Cl)=NN1Cc1nnc(-c2ccccc2)o1,7.9,-20,2,15,5%,
CCOc1ccc(NC(=O)CN(C)C(=O)CN2C(=O)C3CC=CCC3C2=O)cc1OCC (stereo unspecified),-1.8,.,4,.,.,
O=C(Cn1nc(C(=O)O)c2ccccc2c1=O)Nc1ccccc1C(F)(F)F,0.7,.,0,.,.,

# 13 entries from above, sorted by heavy-atom count, largest number first.
SMILES,RecA splice inh,YopH PTP inh,Mtb bLac sens,Arbovirus inh,Mtb H37Rv,others
Cc1ccc(-c2nnn(CC(=O)N(CCN3CCOCC3)C(C(=O)NC(C)(C)C)c3ccc(C)o3)n2)cc1 (stereo unspecified),0.9,.,-5,.,1%,
COc1ccc(S(=O)(=O)N2CCCCC2)cc1NC(=O)c1cc([N+](=O)[O-])ccc1N1CCOCC1,-2.7,.,-11,.,.,
CC(C)CCNC(=O)C(Cc1ccccc1)NS(=O)(=O)c1ccc2c(c1)c(=O)n(C)c(=O)n2C (stereo unspecified),0.9,6,-7,-13,-2%,
O=C(CCCn1c(=S)[nH]c2cc3c(cc2c1=O)OCO3)N1CCN(c2ccccn2)CC1,.,-22,.,2,0%,
Cc1ccc(S(=O)(=O)N(C)C)cc1NC(=O)COC(=O)CCCOc1ccccc1,3.3,.,-7,.,.,
CCc1ccc(C(=O)Nc2ccc(OC)c(S(=O)(=O)N3CCOCC3)c2)cc1,1.5,.,2,-4,-1%,
COc1ccccc1NC(=O)NC1(C(=O)N2CCC(O)CC2)CCCCC1,-0.3,12,-3,6,4%,
Cc1ccc(OP(=O)(Nc2cccc(C)c2)Oc2ccc(C)cc2)cc1,1.1,.,4,.,.,
Cc1cccc(C)c1NC(=S)N1CCC(N(C)CC2CCCO2)CC1 (stereo unspecified),0.6,-3,-5,-2,-5%,
Cc1ccc(CN2CC(C(=O)Nc3ncccc3C)CC2=O)cc1 (stereo unspecified),-3.3,.,-15,.,.,
COc1cccc(OC)c1C(=O)Nc1nnc(C(C)C)s1,.,-16,3,6,-5%,Arbovirus inh repeat=2
Cc1ccccc1NC(=O)c1cccc2nccnc12,-4.1,-33,?,0,-5%,
COC(=O)c1cccc(S(=O)(=O)N2CCCCC2)c1,2.7,-59,-10,1,-1%,

# An excerpt; count on the stated rates, not on these rows.
